Rango release inh: inhibitors of RanGTP-induced Rango-importin beta complex dissociation. O95149+P62826. Biochemical FRET Rango-importin beta, RanGTP-induced dissociation. Potency, µM (highest dose often 46.1 µM), for the others: top-dose activity change, negative = inhibition. hit rate 0.071% among 340,000. AID 540253; active means falling FRET ratio curve, often poorly fitted, with flat reads before Ran was added; inconclusive means other falling curves, or compound fluorescence or quenching; inactive means flat or rising ratio curve;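 also: potency is read from the fitted curve at half-maximal effect; % of control where 0% means no effect; nearly all actives have a fitted effect of over 45% in size; -100% = wells without RanGTP and RCC1; the record marks most hits as doubtful in a second field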
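Rango/importin beta premix (0.1/0.25 uM final), PBS + 1 mM DTT + 0.02% Tween-20 + 0.1% BSA; cpd 5 min RT; FRET pre-read; + RanGTP-RCC1 (0.6 uM Ran, 2 mM GTP, 0.2 uM RCC1); 45 min RT; FRET post-read, ex 430, em 486/530 nm.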
GLA inh pH 4.5: inhibitors of human alpha-galactosidase A at pH 4.5; P06280; purified enzyme, 4-MU-alpha-Gal fluorescence, pH 4.5; activity change, negative = inhibition, % at 105 µM; 230,000 tested, under 10 active; AID 1467; inconclusive = small, poorly fitted or top-dose-only inhibition, or a rising curve; inactive = flat fitted curve, though single readings scatter; no compound was filed as active;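 also: 0% = full activity with enzyme and -100% = basal without enzyme; dose as in the result columns while the protocol names 77 µM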
Target sequence (P06280 whole entry, looked up): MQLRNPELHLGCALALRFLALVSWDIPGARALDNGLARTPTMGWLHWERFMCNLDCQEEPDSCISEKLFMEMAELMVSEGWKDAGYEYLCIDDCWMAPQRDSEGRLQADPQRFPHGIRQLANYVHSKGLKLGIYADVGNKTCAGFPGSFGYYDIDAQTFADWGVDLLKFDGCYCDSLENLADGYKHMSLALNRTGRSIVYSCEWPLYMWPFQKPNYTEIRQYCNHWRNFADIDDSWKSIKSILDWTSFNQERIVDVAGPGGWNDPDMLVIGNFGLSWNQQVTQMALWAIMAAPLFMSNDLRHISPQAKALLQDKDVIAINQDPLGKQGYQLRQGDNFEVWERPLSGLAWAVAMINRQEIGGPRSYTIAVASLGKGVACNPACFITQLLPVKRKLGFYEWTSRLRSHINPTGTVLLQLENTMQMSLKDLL
Rango-impB inh: Rango-importin beta binding inhibition; hit rate 0.031% among 340,000; Rango CFP/YFP FRET sensor + importin beta, 45 min; Q14974; Potency, µM (doses to about 92.2 µM), for the others: at the top dose inhibition of complex formation; AID 540263; active = rising FRET ratio curve, often small or poorly fitted; inconclusive = mostly compound fluorescence or quenching in the first reads; inactive = flat curves in all reads;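 also: potency is read from the fitted curve at half-maximal effect; 0% = DMSO wells and 100% = buffer wells lacking importin beta; nearly all actives have a fitted effect of over 15% in size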
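FRET biosensor Rango (snurportin 1 IBB between N-terminal EYFP and C-terminal Cerulean), 50 nM in PBS/1 mM DTT/0.02% Tween-20/0.1% BSA, preincubated 5 min RT with compound; 0.125 microM importin beta added, 45 min RT, CFP/YFP FRET ratio read.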
miR-21 FLuc: raises the signal of a miR-21 reporter; AID 2288; HeLa miR-21 FLuc reporter, luciferase, 48 h; Potency, µM (doses to about 38.3 µM), inactives show at the top dose reporter change, positive = more light; 340,000 tested, under 10 active; active = well fitted rising curve with a large enough effect; inconclusive = small, poorly fitted or top-dose-only effect; inactive = no such curve, though single readings can be large or run the other way;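 also: % of control where 0% means no effect; miR-21 action dims this reporter so a rising signal means less miR-21 action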
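HeLa miR-21-FLuc reporter line, endogenous miR-21; 2000 cells/well in DMEM/10% FBS; compound titration up to ~40uM final, 48 h, 37 degree Celsius; luciferase detection reagent, 15 min lysis, CCD luminescence.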
Active calls of the source: *; ? = inconclusive; · = not tested or not shown.

The line under a structure holds: Rango release inh	GLA inh pH 4.5	Rango-impB inh	miR-21 FLuc
CCCNc1c(NS(=O)(=O)c2c(F)c(F)c(F)c(F)c2F)c(=O)oc2ccccc12
 : 13%	·	-2.8%	-4%
CCc1cc2c(=O)n(CCCOC)c(SCC(=O)Nc3oc(C)c4c(C)n[nH]c(=O)c34)nc2s1
 : 14%	·	-2.9%	·
CCOCCn1c(CN2CCN(CC)CC2)nc2c1c(=O)n(C)c(=O)n2C
 : 18%	6	0.0%	-3%
CC(Oc1ccc(-n2cnnn2)cc1)C(=O)O (stereo not given)
 : -12%	3	-1.3%	1%
COc1ccc2nc(C)cc(SCC(=O)NNC(=O)COc3cccc4ccccc34)c2c1
 : 22%	3	0.4%	18%
CC(C)(C)c1cc(C(=O)O)c(CN2CCCCC2)o1
 : 0%	-23	-1.2%	-3%
CCCn1c2ccccc2c2cnn(CC(=O)N3CCOCC3)c(=O)c21
 : ?	·	4.4%	-7%
Cc1cccc(/C=N/NC(=O)c2cc3c(s2)-c2ccccc2CC3)c1
 : -15%	14	1.5%	0%
CC(C)c1ccc(C(=O)Nc2cccnc2)cc1
 : 6%	·	0.4%	-24%
O=C(Nc1ccc2c(c1)CCC2)C1CCN(c2c3c(nc4ncnn24)CCC3)CC1
 : 1%	1	-3.6%	17%
COc1cccc(-c2nc(CS(=O)(=O)CC(=O)N3CCN(C4CCCCC4)CC3)c(C)o2)c1
 : -6%	-9	1.1%	-1%
CCN(c1ccccc1)S(=O)(=O)c1ccc(Cl)c(NC(=O)CN2C(=O)NC3(CCCC3)C2=O)c1
 : -11%	5	-0.9%	3%
CCSc1nnc(NC(=O)C2CCN(S(=O)(=O)c3ccccc3C(F)(F)F)CC2)s1
 : 7%	3	4.1%	8%
O=C1C(Cl)=C(NS(=O)(=O)c2ccc([N+](=O)[O-])cc2)C(=O)c2ccccc21
 : 13%	4	-3.0%	?
Cc1ccc(C(=O)NC(=S)Nc2ccc(Oc3ccc(Cl)cc3)cc2)cc1
 : 7%	-4	-0.3%	-1%

By substructure: the entries above containing two or more sulfur atoms.
The line under a structure holds: Rango release inh	GLA inh pH 4.5	Rango-impB inh	miR-21 FLuc
CCc1cc2c(=O)n(CCCOC)c(SCC(=O)Nc3oc(C)c4c(C)n[nH]c(=O)c34)nc2s1
 : 14%	·	-2.9%	·
CCSc1nnc(NC(=O)C2CCN(S(=O)(=O)c3ccccc3C(F)(F)F)CC2)s1
 : 7%	3	4.1%	8%

Carrying on:
The line under a structure holds: Rango release inh	GLA inh pH 4.5	Rango-impB inh	miR-21 FLuc
CC(=O)c1cccc(NC(=O)N2CCCC(C(=O)c3cc(F)ccc3F)C2)c1 (stereo not given)
 : 4%	1	-1.5%	-1%
CSCCC(NC(=O)c1ccccc1)C(=O)NCCCn1nc(C)cc1C (stereo not given)
 : 1%	·	-0.1%	·
COc1cc(/C=C/C(=O)OCC(=O)NC(=O)NC23CC4CC(CC(C4)C2)C3)ccc1OCC#N
 : -15%	-8	5.3%	-6%
O=C(NCc1ccco1)C1CC(c2c(Cl)cccc2Cl)=NO1 (stereo not given)
 : -10%	-25	-3.0%	17%
Cc1ccc(NC(=O)CSc2ccc(-c3ccccn3)nn2)c(C)c1
 : -1%	·	3.1%	6%
CC(NC(=O)c1cc(Br)cs1)C1CCCO1 (stereo not given)
 : -13%	·	-4.4%	-5%
Cc1ccc(-c2nc(-c3ccncc3)no2)c(Cl)c1
 : -16%	·	0.5%	-45%
Cc1ccc(C(C)NC(=O)c2ccc3c(c2)OCO3)cc1C (stereo not given)
 : -4%	·	-0.2%	8%
Cc1ccc(-n2c(C)cc(/C=C3\SC(=O)NC3=O)c2C)cc1
 : -11%	·	?	-64%
CCOC(=O)c1nn(-c2cccc(OC)c2)c2nc(CC)c(C#N)c(=O)n12
 : -1%	2	-0.5%	-3%
CC1CCCCN1C(=O)COC(=O)c1cc([N+](=O)[O-])ccc1N1CCOCC1 (stereo not given)
 : -21%	·	5.4%	·
O=C(Nc1ccc2nc(-c3cccs3)[nH]c2c1)c1ccco1
 : ?	3	-1.4%	-56%
CCOc1cc(S(=O)(=O)NCC2OCCc3ccccc32)c(OCC)cc1-n1cnnn1 (stereo not given)
 : 41%	2	-4.1%	-20%
Cc1ccc(NC(=O)N(Cc2cccs2)Cc2cc3cc4c(cc3[nH]c2=O)OCO4)cc1
 : ·	-26	·	-7%
COc1ccc(Cn2ccnc2CO)cc1[N+](=O)[O-]
 : 11%	3	-1.8%	3%

Later entries
The line under a structure holds: Rango release inh	GLA inh pH 4.5	Rango-impB inh	miR-21 FLuc
CCN(c1ccccc1)S(=O)(=O)c1ccc2[nH]c(=O)c(=O)[nH]c2c1
 : 0%	·	2.0%	0%
O=C(Nc1cccc2ccccc12)C(=O)C1C(=O)Nc2ccccc21 (stereo not given)
 : -16%	3	-2.4%	2%
Cc1ccc(CC2S/C(=C(/C#N)C(=O)N3CCOCC3)N(c3ccccc3)C2=O)cc1 (stereo not given)
 : 2%	-7	0.6%	-8%
Cc1c(C2(O)CCCCC2)[nH]c2ccc(C#N)cc12
 : 2%	·	-6.1%	·
CCS(=O)(=O)c1ccc2c(c1)N(S(=O)(=O)c1ccccc1)CC(C(=O)O)O2 (stereo not given)
 : 3%	-22	0.1%	1%
O=C(CN1CCN(S(=O)(=O)c2cccs2)CC1)N1CCCCC1
 : -8%	·	-6.3%	·
CN(CC(=O)Nc1c(Cl)cccc1Cl)CC(=O)N(C)C1(C#N)CCCCC1
 : -10%	·	-0.1%	·
COc1ccc(OC)c(C2=NS(=O)(=O)N(C)C(C(=O)Nc3cccc(C(C)=O)c3)=C2)c1
 : -2%	·	0.6%	10%
CC1C(=O)N2CCCc3cc(S(=O)(=O)Nc4ccccc4F)cc1c32 (stereo not given)
 : -15%	·	-2.2%	·
CN(CCc1cn[nH]c1)Cc1nc(Cc2ccccc2F)no1
 : 1%	5	-0.1%	4%
O=C(Nc1cccs1)Nc1c(F)c(F)cc(F)c1F
 : 23%	5	-2.2%	1%
O=C(O)C1CSC2(CCN(Cc3ccccc3)CC2)N1 (stereo not given)
 : -9%	0	-2.3%	-5%
O=C(NCc1ccccc1Cl)c1ccc(S(=O)(=O)N2CCCC2)cc1
 : 6%	·	-0.4%	·
CC(=O)c1cc2c(cc1NC(=O)CN(C)S(=O)(=O)c1cccs1)OCO2
 : -10%	·	-1.7%	·
COCCN1Cc2cccc(C(=O)N3CCN(c4cc(C)ccc4C)CC3)c2C1=O
 : -11%	-4	3.4%	-2%

More structures follow.
The line under a structure holds: Rango release inh	GLA inh pH 4.5	Rango-impB inh	miR-21 FLuc
N#Cc1ccccc1NC(=O)CC1c2ccccc2Oc2ccccc21
 : 0%	1	-3.2%	-6%
Cc1c(CC(=O)N[C@@H](C)C(=O)O)c(=O)oc2cc3oc4c(c3cc12)CCCC4
 : -16%	·	-1.1%	0%
C/C(=N\NC(=O)c1ccccc1NC(=O)c1ccc(Cl)cc1)c1ccncc1
 : -15%	-3	-6.6%	?
CCn1ncc(-c2cc(C(=O)O)no2)c1C
 : 3%	4	-3.4%	-2%
Cc1cccc([N+](=O)[O-])c1C(=O)O
 : -6%	·	2.9%	·
CCn1c(SCC(=O)NNC(=O)c2ccc(OC)cc2)nnc1-c1ccco1
 : 2%	-1	3.1%	-1%
CCN(CC(=O)Nc1c(F)cccc1F)C(=O)c1cccc(-n2cnnn2)c1
 : 12%	·	-0.2%	·
CCOC(=O)C1=NN(c2ccc(C)cc2)C2(S1)SC(C(C)=O)=C(C)N2c1ccccc1 (stereo not given)
 : 5%	-9	-1.9%	6%
O=c1c(Oc2ccccc2Br)c(C(F)(F)F)oc2c(CN3CCCC3)c(O)ccc12
 : ?	-14	?	2%
C[N+]12CCCCC1C(COC(=O)c1ccc3c(c1)OCO3)CCC2 (stereo not given)
 : 2%	-1	2.1%	-3%
O=C1C=C(c2cccc3c2Oc2ccccc2S3)C[C@@H](c2ccc(Cl)cc2)C1
 : -17%	·	3.3%	·
COc1cc(Cl)ccc1OCc1cc(C(=O)N2C[C@H]3CC[C@H]2C3)no1
 : -10%	·	-0.3%	-64%
O=C(CCn1cnnn1)Nc1ccc(Cl)c(Cl)c1
 : -7%	9	3.5%	?
C#CCNC(=O)C1=C[C@H](C(C)(C)C)C[C@H](OCc2ccc(CO)cc2)O1
 : -7%	-14	1.6%	-15%
CC(C)C[C@H]1CNC(=S)N1CC1CCCN1C[C@H](CC(C)C)N1C[C@H](CC(C)C)N(CCc2ccccc2)C1=S (stereo not given in full)
 : ?	·	0.0%	·

(further entries)
The line under a structure holds: Rango release inh	GLA inh pH 4.5	Rango-impB inh	miR-21 FLuc
CSCCC(NC(=O)COc1ccccc1)C(=O)N(C)CC(=O)Nc1ccc(Cl)cc1 (stereo not given)
 : 8%	·	0.8%	·
O=C(c1ccco1)N1CCc2[nH]nc(-c3ccc(Cl)cc3)c2C1
 : 31%	·	2.5%	2%
CCSc1nc2c(c(=O)[nH]c(=O)n2C)n1CC(O)COc1ccccc1 (stereo not given)
 : -20%	2	0.5%	-1%
CN(Cc1nc2ccccc2n1C)C(=O)c1ccco1
 : -4%	·	0.1%	-1%
CCc1ccc(C2C(C(C)=O)=C(C(=O)OC)Nc3nnnn32)cc1 (stereo not given)
 : 4%	-4	-0.1%	1%
S=C(NCCCN1CCOCC1)Nc1ccc(-c2nc3ccccc3[nH]2)cc1
 : 2%	3	-1.2%	14%
Cc1ccc(-c2nnc(N3CCN(c4ccccn4)CC3)c3ccccc23)cc1
 : -13%	-9	-0.4%	17%
CCOc1ccc(-c2cc(C(=O)N3CCN(c4ccccn4)CC3)c3ccccc3n2)cc1
 : 17%	-12	0.8%	-24%
CN1CC(c2ccccc2)C2(SC(=S)N(Cc3ccco3)C2=O)C12C(=O)Nc1ccccc12 (stereo not given)
 : 7%	1	0.6%	?
Cc1cc(Cl)cc2sc(=S)[nH]c12
 : 1%	·	2.0%	·
Cc1ccc(OCCn2c(CCNC(=O)C(C)C)nc3ccccc32)cc1
 : 9%	8	-1.9%	-4%
O=[N+]([O-])c1cc(NS(=O)(=O)c2ccc(Cl)nc2)ccc1Cl
 : 7%	·	-3.9%	·
COc1ccc(CCN(C)C(=O)CCNS(=O)(=O)c2ccccc2C(F)(F)F)cc1OC
 : 0%	·	1.8%	·
COc1ccc(CCNC(=O)CCOc2ccc(C(C)(C)C)cc2)cc1OC
 : 2%	·	-3.3%	·
COc1cccc(COc2ccc3c(C)c(Cc4ccccc4)c(=O)oc3c2)c1
 : -12%	·	-0.6%	·

Next compounds follow:
The line under a structure holds: Rango release inh	GLA inh pH 4.5	Rango-impB inh	miR-21 FLuc
COc1ccc(C2=NOC(C(=O)NCc3ccccn3)C2)cc1 (stereo not given)
 : -6%	5	1.2%	-2%
COc1ccccc1N1CC(C(=O)NCC2COc3ccccc3O2)CC1=O (stereo not given)
 : 9%	·	-3.8%	·
CCC(=O)Nc1sc2c(c1C(N)=O)CCC2
 : 7%	2	2.7%	-3%
CCN1CCN(CC2CC3C=CC2C3)CC1 (stereo not given)
 : 6%	-10	0.4%	-1%
CC(C)Oc1ccc(CCC(=O)NNC(=S)Nc2ccccc2)cc1
 : 15%	-9	0.3%	-1%
Cc1ccc(/C([O-])=C(/C(=S)NCc2ccccc2)[n+]2cccc(CO)c2)cc1[N+](=O)[O-]
 : 18%	-4	-0.4%	6%
O=C(NCCCCCCNC(=O)c1ccncc1)c1ccncc1
 : 0%	·	-1.0%	2%
C(=N\N1CCN(Cc2cccc3ccccc23)CC1)/c1cccs1
 : -9%	?	2.0%	0%
NS(=O)(=O)c1ccc(NC(=S)N2CCN(c3cccc(Cl)c3)CC2)cc1
 : -8%	3	-0.2%	16%
COc1ccccc1C(=O)N1CCNC(=O)C1CC(=O)Nc1cccc(C)c1 (stereo not given)
 : -14%	0	2.8%	-4%
NC(=O)C1CCN(c2nc(-c3ccc4ccccc4c3)cs2)CC1
 : -10%	·	0.5%	·
CCN(CC(=O)NCc1ccc(F)cc1)C(=O)CN1CCN(c2ccccc2OC)CC1
 : -3%	·	-1.6%	7%
COc1cc(C(=O)NNC(=O)c2ccc3ccccc3n2)cc(OC)c1OC
 : -9%	·	-3.6%	·

A portion of the library; the hit share may differ from the screen's.
